PABP FP inh = PABP poly(A) RNA binding inhibitors, primary screen, biochemical, fluorescence polarization, uHTS. Polyadenylate-binding protein 1 (Homo sapiens), P11940. inhibition, % at 35 µM. actives 1% (n = 290,000). AID 2014, 2009;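 active = 50% or more with normal probe brightness, or confirmed in later tests; about a fifth of its hits are not listed in these tables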;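 also: calls also rest on retests at 20 µM and on dose response follow-up; controls were probe without protein and protein plus probe with vehicle; some compounds called inactive have numbers as strong as hits; many hits fall short of the cut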
Target sequence (P11940 whole entry, looked up): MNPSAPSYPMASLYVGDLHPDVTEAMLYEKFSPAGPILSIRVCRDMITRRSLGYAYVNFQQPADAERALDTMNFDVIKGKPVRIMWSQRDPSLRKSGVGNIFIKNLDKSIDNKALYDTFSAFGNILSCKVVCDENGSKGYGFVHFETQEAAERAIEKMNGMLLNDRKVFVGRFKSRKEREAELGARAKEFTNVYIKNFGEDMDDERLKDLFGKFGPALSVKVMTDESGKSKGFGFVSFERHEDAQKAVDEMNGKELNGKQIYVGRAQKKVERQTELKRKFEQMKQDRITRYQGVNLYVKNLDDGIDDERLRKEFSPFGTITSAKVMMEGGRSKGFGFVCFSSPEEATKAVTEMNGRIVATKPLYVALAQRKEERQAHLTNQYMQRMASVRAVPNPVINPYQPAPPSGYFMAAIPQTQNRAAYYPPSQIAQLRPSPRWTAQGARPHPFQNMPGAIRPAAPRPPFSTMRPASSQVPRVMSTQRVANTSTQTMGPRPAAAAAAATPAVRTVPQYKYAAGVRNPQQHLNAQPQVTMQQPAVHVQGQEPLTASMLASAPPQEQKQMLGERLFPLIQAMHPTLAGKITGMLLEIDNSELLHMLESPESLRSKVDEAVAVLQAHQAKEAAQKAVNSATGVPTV
Env fusion inh = inhibitors of HIV-1 Env-driven cell-cell fusion, primary screen, HeLa-JRFL effector, CEM21 target cells, luciferase; inhibition, % at 12.3 µM; actives 1.1% (n = 360,000);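 active = mean replicate inhibition score of at least 50 and every replicate individually at or above 50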;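 also: 0% = plate neutral controls and 100% = maraviroc near 300 nM; one replicate is shown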
Rce1 inh = yeast Rce1p protease inhibitors, primary screen, biochemical, fluorescence, cell-free homogeneous | AID 2563, 2010 | CAAX prenyl protease 2 (Saccharomyces cerevisiae (strain ATCC 204508 / S288c)), Q03530 | actives 0.27% (n = 290,000) | yeast membranes, quenched prenylated peptide cleavage fluorescence | calls only;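 active = fall in fluorescence gain of 50% or more versus controls, with final raw signal at or below 3038400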;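 also: plate controls were neutral control wells for no effect and wells lacking membranes for full effect; tested at 10 µM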
Target sequence (Q03530 whole entry, looked up): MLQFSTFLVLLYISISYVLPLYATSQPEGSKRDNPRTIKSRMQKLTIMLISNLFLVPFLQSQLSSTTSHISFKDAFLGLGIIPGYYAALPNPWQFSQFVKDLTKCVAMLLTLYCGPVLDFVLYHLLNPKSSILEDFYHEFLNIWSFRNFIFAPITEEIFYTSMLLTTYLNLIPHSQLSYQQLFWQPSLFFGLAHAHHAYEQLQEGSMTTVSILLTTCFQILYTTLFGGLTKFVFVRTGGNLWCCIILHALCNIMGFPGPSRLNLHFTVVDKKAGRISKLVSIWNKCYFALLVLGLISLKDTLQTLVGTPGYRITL
Yeast UUG start = modulators of yeast start codon fidelity, primary screen, whole organism, S. cerevisiae, single point, plate reader; S. cerevisiae UUG-firefly luciferase reporter, luminescence/redox ratio; activity score, % at 18.7 µM; actives 0.13% (n = 350,000);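 active = replicate mean at a twofold rise or more, about +100% in these data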;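 also: firefly luciferase made from a UUG start codon reports start codon fidelity; reporter light over untreated wells divided by growth signal over untreated wells; some hits fall short of that in this replicate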
MT1-MMP act inh = blockers of MT1-MMP proenzyme processing, primary screen, HT1080 RFP-PRO-GFP cells, GFP/RFP fluorescence; GFP/RFP ratio fluorescence, overnight; percent of plate control window, DMSO zero; actives 0.061% (n = 360,000); GFP/RFP ratio change, % at 20 µM; Matrix metalloproteinase-14 (Homo sapiens), P50281;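 active = GFP/RFP ratio change of at least 30% with cell ATP level not reduced by more than half and red fluorescence within 50% of control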; also: strong numbers were not always called active
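Material – HT1080 RFP-PRO-GFP cells · Control set – DMSO wells and RFP-L50D-GFP cells · Incubation – overnight cell settling, then overnight compound exposure, 37 °C, 5% CO2 · Compound dosing – single-point 20 µM compound, 1% DMSO · Read-out – GFP/RFP fluorescence ratio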
CSC inhib = cancer stem cell viability inhibitors, primary screen, luminescence; cancer stem cell-like cells viability; inhibition, % at 7.5 µM; actives 1.1% (n = 300,000);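 active = mean at 75% or more and at least half the replicates too; tested in HMLE shEcad cells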;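 also: 0% = median of negative and 100% = median of positive control wells; the first replicate is given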
eIF4H inh = human eIF4H binding inhibitors, primary screen, translation initiation inhibitor project, biochemical, uHTS, fluorescence polarization; actives 0.94% (n = 290,000); AID 2012, 2009; eIF4H fluorescence polarization binding assay; inhibition, % at 35 µM; Eukaryotic translation initiation factor 4H (Homo sapiens), Q15056;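 active = 50% or more with normal probe brightness, or confirmed in later tests; about a fifth of its hits are not listed in these tables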;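 also: calls also rest on retests at 20 µM and on dose response follow-up; 0% = protein and probe with vehicle and 100% = probe without protein; strong numbers were not always called active; many hits fall short of the cut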
MT1-MMP act inh RFP = also measured in MT1-MMP act inh; calls as there; RFP signal change, %; measured here: RFP expression control read;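 0 = vehicle wells; hits needed this value within 50% of zero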
An asterisk follows results filed as active; i = inactive; / = no result given; & = joins results of further samples.

SMILES	PABP FP inh	Env fusion inh	Rce1 inh	Yeast UUG start	MT1-MMP act inh	MT1-MMP act inh RFP	CSC inhib	eIF4H inh
CNC(=O)/C=C/c1cc(C(=O)c2ccc(Cl)cc2Cl)cn1C	10	4	i	/	2	0	-11	-7
CC(C)[C@H](NC(=O)[C@H](CCCN=C(N)N)NC(=O)NC(Cc1ccccc1)C(=O)O)C(=O)NC(C=O)CCCN=C(N)N (stereo partly specified)	-4	8	i	-10	5	7	-13	14
CCN(CC(=O)Nc1ccc(C(C)=O)cc1)CC(=O)Nc1cccc(OC)c1	4	1	i	/	0	-2	4	-4
C[C@H]1CN([C@@H](C)CO)C(=O)Cc2cc(NC(=O)Nc3ccccc3)ccc2O[C@H]1CN(C)Cc1ccccc1	/	25	/	-11&-2	2	-4	/	/
CN1C(=O)NC(NC(=O)c2ccncc2)(C(F)(F)F)C1=O (stereo unspecified)	7	28	i	-7	5	1	-7	-4
Cc1cccc(NS(=O)(=O)c2cc3c4c(c2)CC(=O)N4CCC3)c1C	/	14	i	-3	2	-3	11	/
S=C(Nc1ccc(Oc2ccccc2)cc1)N1CCOCC1	-4	6	i	-29	7	-3	-11	-1
O=C(NCCc1ccccc1)N1CCCC(CNS(=O)(=O)Cc2ccccc2)C1 (stereo unspecified)	-2	-2	i	/	4	5	10	-6
O=c1c(-c2ccccc2)c[nH]n1-c1cccc([N+](=O)[O-])c1	8	11	i	/	1	-5	/	-8
COc1cc(-c2ccccc2)[nH]c(=S)n1	/	-7	/	-14	3	4	-3	/
Cc1ccc(F)c(S(=O)(=O)NC(=O)C2(C)CCN2C(=O)Cc2cc(F)ccc2F)c1 (stereo unspecified)	/	-6	/	-2	1	2	/	/
COc1ccc2sc(-c3ccccc3OC)c(C#CC(C)(C)O)c2c1	/	6	/	-2	5	3	50	/
O=C(NC(=S)Nc1cccc2ncccc12)c1ccccc1	10	1	i	/	3	-4	-3	-4
COc1ccc(-c2c(C#Cc3ccsc3)c3cc(-c4cccc5[nH]ccc45)ccc3n2C)cc1	/	-10	/	-14	-3	3	29	/
CSc1ccccc1NC(=O)Nc1cccc(Cl)c1	-1	/	i	-14	-3	-6	/	-3
CCCN1C(=O)SC(CC(=O)Nc2ccc(Br)cc2)C1=O (stereo unspecified)	-8	/	i	-3	7	0	/	-1
CCS(=O)(=O)c1ccc2oc(SCC(=O)NC3CCCC(C)C3C)nc2c1 (stereo unspecified)	7	/	i	26	-5	-3	5	-9
O=C(O)c1ccccc1C(=O)Nc1ccc(Oc2ccccc2)cc1	7	-25	i	-4	0	-5	/	0
Cc1ccc(C)c(-n2nnnc2SCC(=O)NCCC2=CCCCC2)c1	4	-3	i	11	5	0	/	-12
C/C(N)=C(/C#N)C(=O)CSc1nnc(-c2ccccc2Br)o1	-4	/	i	-1	5	-2	-8	-5
COc1ccccc1OCC(=O)N/N=C/c1c(O)ccc2ccccc12	-4	50	/	-9	-13	-5	48	-2
Cc1c(C#N)c2ncn(Cc3ccccc3)c(=O)c2n1-c1ccccc1	9	/	i	-8	4	3	3	-7
C=CCNC(=O)c1cc(Cl)ccn1	-12	-4	i	/	-1	3	-5	-7
CC1=Nc2cc(C(=O)O)ccc2Sc2ccc(C)cc21	-2	1	i	2	-5	0	-8	-7
CCCC/C(O)=C1\C(=O)CCCC1=NCCc1c(C)[nH]c2ccccc12	2	17	i	/	-5	-8	-3	-5
(continued)
SMILES	PABP FP inh	Env fusion inh	Rce1 inh	Yeast UUG start	MT1-MMP act inh	MT1-MMP act inh RFP	CSC inhib	eIF4H inh
Cn1cccc1CC(=O)N/N=C\c1cccs1	3	/	i	-20	-4	-1	0	11
O=C(O)c1cc(-c2ccc(/C=N/N3C(=O)C4C5C=CC(C6CC56)C4C3=O)o2)ccc1Cl (stereo unspecified)	-4	-3	i	/	-6	-2	4	-1
O=S(=O)(Nc1ccc2c(c1)OCO2)c1ccc(Cl)cc1F	/	-6	/	-5	4	4	0	/
COCCN(Cc1cc2cc3c(cc2nc1Cl)OCO3)C(=O)Nc1ccccc1OC	-6	/	i	-21	0	0	15	3
Cc1ccc(/C=C/C(=O)NC(=S)Nc2ccc(S(=O)(=O)Nc3cc(C)on3)cc2)cc1	9	-9	i	-15	1	-3	-8	0
CC(=O)c1ccc(OCc2c(-c3ccccc3)nnn2CC(=O)NS(=O)(=O)c2ccc(C)cc2)cc1	/	10	/	-10	-6	2	/	/
CCc1cc2c(=O)c(-c3nc4ccccc4[nH]3)coc2c(CN2CCCCC2)c1O	-7	3	i	/	8	0	-12	1
CCOC(=O)N/N=C/c1c(C)c(C(=O)c2ccc(F)cc2)n2ccccc12	7	6	i	-2	2	3	1	-1
O=C(NCc1ccccc1)C1CCCN(S(=O)(=O)c2cccnc2)C1 (stereo unspecified)	0	/	i	-6	-7	-1	-9	-8
COc1ccc(N2C(=O)CS/C2=C\[N+](=O)[O-])cc1	-7	-10	/	-6	5	6	-12	-3
CC(CCc1ccccc1)NC(=O)COc1ccc(S(=O)(=O)N2CCOCC2)cc1[N+](=O)[O-] (stereo unspecified)	-10	/	i	14	-4	-7	6	-2
COc1ccc(CNC(=O)c2coc(=O)c3ccccc23)cc1	22	6	i	/	3	3	6	-2
Oc1ccc(NC(=S)N=Nc2c(O)[nH]c3ccccc23)cc1	24	-27	i	-21	5	-4	12	8
CC(=O)Nc1ccc(S(=O)(=O)N2CCC(c3nnc(-c4ccc(C)cc4)o3)CC2)cc1	2	/	i	-7	-5	-7	-20	-15
CCCCNS(=O)(=O)c1ccc2nc(-c3cccnc3)cc(C(=O)NCCCOCC)c2c1	13	/	i	/	/	/	-6	6
Cn1c(SCC(=O)c2ccc3c(c2)NC(=O)CO3)nc2ccccc21	3	9	i	/	3	7	8	-2
Cc1ccc(-c2nn(Cc3ccccc3)cc2C(=O)N2CCN(c3ccccn3)CC2)cc1	/	-34	/	-4	2	-2	1	/
CC(C)c1ccc(S(=O)(=O)N2CCCCC2)cc1	-10	4	i	-7	-1	-2	-2	4
CCC(=O)Nc1cccc(Br)c1	5	/	i	-23	1	5	/	-8
Cc1cc(-c2ccccc2)nc(N/N=C/c2ccc([N+](=O)[O-])cc2)n1	-2	-11	i	-23	4	-7	8	-12
COc1cccc(NC(=O)Nc2ccncc2)c1	-12	17	/	/	1	1	-3	-3
CC(C)CCn1cnc2c(NCc3ccccc3)ncnc21	-1	-21	i	-23	3	0	7	0
O=C(CN1CCC(n2nnc3cc(F)ccc32)CC1)NC1CC1	4	46	i	-9	3	3	-1	-6
C/C(=N\NC(=O)CN1CCN(S(=O)(=O)c2ccc(C)cc2)CC1)c1ccncc1	-6	-4	i	-14	0	1	22	-4
Cc1cc(C)c(S(=O)(=O)N(C)CC(=O)NCCCn2ccnc2)c(C)c1	-3	18	i	-2	1	-3	-22	-8

As a short view, some entries already given:
SMILES	PABP FP inh	Env fusion inh	Rce1 inh	Yeast UUG start	MT1-MMP act inh	MT1-MMP act inh RFP	CSC inhib	eIF4H inh
Oc1ccc(NC(=S)N=Nc2c(O)[nH]c3ccccc23)cc1	24	-27	i	-21	5	-4	12	8
CC(=O)Nc1ccc(S(=O)(=O)N2CCC(c3nnc(-c4ccc(C)cc4)o3)CC2)cc1	2	/	i	-7	-5	-7	-20	-15
CCCCNS(=O)(=O)c1ccc2nc(-c3cccnc3)cc(C(=O)NCCCOCC)c2c1	13	/	i	/	/	/	-6	6
Cn1c(SCC(=O)c2ccc3c(c2)NC(=O)CO3)nc2ccccc21	3	9	i	/	3	7	8	-2
Cc1ccc(-c2nn(Cc3ccccc3)cc2C(=O)N2CCN(c3ccccn3)CC2)cc1	/	-34	/	-4	2	-2	1	/
CC(C)c1ccc(S(=O)(=O)N2CCCCC2)cc1	-10	4	i	-7	-1	-2	-2	4

(further entries)
SMILES	PABP FP inh	Env fusion inh	Rce1 inh	Yeast UUG start	MT1-MMP act inh	MT1-MMP act inh RFP	CSC inhib	eIF4H inh
Cc1ccc2c(C)c(C(=O)N3CCN(Cc4ccc5c(c4)OCO5)CC3)oc2c1C	-13	-26	i	6	-2	-4	63	0
CCCc1nc(NCc2ccncc2)c2nnn(Cc3ccccc3F)c2n1	-3	/	i	-20	-24	-26	8	1
CS(=O)(=O)c1ccc(C(=O)N(CCc2ccccc2)Cc2ccccc2)cc1	-11	/	i	1	-7	-1	-3	2
CS(=O)(=O)N1CCN(c2ncnc3c2cnn3-c2ccccc2)CC1	-2	7	i	/	0	-7	-7	-2
COc1cc(/C=C2/NC(=O)NC2=O)cc(Br)c1OCc1cccc(C(=O)O)c1	6	-1	i	/	-4	-1	-4	1
O=S(=O)(O)c1cc(OS(=O)(=O)c2ccccc2)cc2ccccc12	8	-7	i	-8	-1	4	4	1
O=C(NC1CCCC1)C1CCN(C(=O)c2cccc(Cl)c2)CC1	3	-3	i	48	1	2	/	-8
Cc1cc(N2CCN(C3CCCCC3)CC2)n2nc(C)nc2n1	4	-9	i	-1	2	3	-6	6
C#CCSc1nc2[nH]ncc2c(=O)[nH]1	17	4	i	/	-3	-3	-9	-3
COc1cc(SC)ccc1C(=O)OCC(=O)NC1CC1	8	4	i	/	1	2	/	8
CCCN(C(=O)C1CC(=O)N(c2ccccc2C(C)CC)C1)C1CCS(=O)(=O)C1 (stereo unspecified)	/	-36	/	-5	-3	2	/	/
C[C@H](NC(=O)c1nc[nH]c1C(=O)N[C@@H](CCCCNC(=O)OC(C)(C)C)C(=O)OC(C)(C)C)C(=O)OCc1ccccc1	4	8	i	-25	-7	-10	3	9
Cc1ccc(C)c(NS(=O)(=O)c2ccccc2C)c1	-6	11	i	-13	-1	1	-8	-12
Cc1cc(S(=O)(=O)n2cnc3ccccc32)c(C)cc1Cl	3	/	i	-39	7	9	-9	4
CCC(C(=O)NC1CCCC1)N(C(=O)Cn1nnc(-c2ccc(C)cc2)n1)C1CCCC1 (stereo unspecified)	/	/	i	-14	-8	-9	-1	/
C/C(=N/NC(=O)c1cccc(C)c1)c1c(O)cc(C)oc1=O	-8	-16	i	-16	1	7	-4	-6
CC1(C(=O)NS(=O)(=O)c2ccccc2)CCN1C(=O)C1(c2ccc(Cl)cc2)CCC1 (stereo unspecified)	/	8	/	-4	5	4	/	/
Cc1nn(C)cc1CNC(=O)c1ccc(Br)o1	-1	/	i	/	2	5	1	0
COC(=O)c1scc(C)c1S(=O)(=O)Nc1ccc(C)cc1	5	-1	/	/	3	1	13	-4
CCC(=O)NC1(Cc2ccc(O)cc2)CCCCC1	-33	1	i	/	-4	2	-9	-20
Cn1c(-c2ccccc2)c(/C=N/NC(=O)c2ccc(O)cc2)c2ccccc21	5	-112	i	-10	3	0	-12	-9
CCOc1cc(C(=O)Nn2cnnc2)cc(OCC)c1OCC	45	6	i	-2	2	3	-8	3
Cc1cc(S(=O)(=O)N2CCOCC2)ccc1OCC(=O)Nc1ccccc1C(F)(F)F	2	-9	i	0	4	6	/	-3
COc1ccc(CN(C)C(=O)Cn2ccc(N)nc2=O)cc1OC	/	-2	/	7	0	6	-13	/
Cc1c(C(=O)N2CCc3ccccc32)oc2c1C(=O)CC(C)(C)C2	-4	-150	/	-18	4	3	/	-4
Cc1cccc(N2C(=N)SCC2=O)c1C	-9	2	i	/	0	6	-13	-3
COc1ccc(Cn2ccnc2)cc1[N+](=O)[O-]	0	1	i	/	1	4	/	-9
CN1CCN(S(=O)(=O)c2ccccc2)C(c2ccccc2)C1 (stereo unspecified)	/	2	/	-15	-3	-2	9	/
COc1cc2c(C(F)(F)F)c(-c3ccc(C#N)cc3)oc(=O)c2cc1OC	/	-15	/	-7	9	8	/	/
O=C(CN1C(=O)CCC1=O)Nc1nc(-c2ccc(Oc3ccccc3)cc2)cs1	0	6	i	/	2	-7	-2	-3

Screening data (PubChem BioAssay)
